Bioassay records (PubChem)
HNF4A DNA FP – change in binding of human HNF4 alpha to DNA; activity change, % at 10 µM; HNF4a-FITC DNA binding, fluorescence polarization, 1 h; 360,000 tested, 0.3% active; P41235; in the data active = activity change above about 30%, passing the limit was not always enough;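 note: controls were the assay level and a saturating level of protein; the project sought stronger binding though the title names inhibitors; some compounds called inactive have numbers as strong as hits; positive values seem to mean higher polarization but the record does not say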
Target sequence (P41235 whole entry, looked up): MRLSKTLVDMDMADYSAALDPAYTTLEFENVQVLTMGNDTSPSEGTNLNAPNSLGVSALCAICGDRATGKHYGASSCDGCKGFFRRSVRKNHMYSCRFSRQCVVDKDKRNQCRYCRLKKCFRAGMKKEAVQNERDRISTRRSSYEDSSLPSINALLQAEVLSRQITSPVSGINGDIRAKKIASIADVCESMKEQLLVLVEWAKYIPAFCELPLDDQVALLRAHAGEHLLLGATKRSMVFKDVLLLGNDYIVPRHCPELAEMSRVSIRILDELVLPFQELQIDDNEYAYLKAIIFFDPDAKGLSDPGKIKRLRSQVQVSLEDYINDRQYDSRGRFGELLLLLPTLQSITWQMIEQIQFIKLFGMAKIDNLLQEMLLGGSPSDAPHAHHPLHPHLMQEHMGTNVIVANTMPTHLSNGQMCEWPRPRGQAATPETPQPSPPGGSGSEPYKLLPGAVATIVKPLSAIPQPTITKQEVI
ALR inh – blocks human ALR sulfhydryl oxidase activity; P55789; purified ALR, DTT oxidation, H2O2 HRP-luminol luminescence; inhibition, % (no concentration beside the values); 290,000 tested, 3.8% active; AID 485317;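 active = mean and each replicate at 75% or more; inconclusive = only one of the two met; inactive = neither met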;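 note: stock transfer was 7.5 nL into about 7.5 µL; 0% = neutral wells and 100% = wells with inactivated enzyme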
Target sequence (P55789 whole entry, looked up): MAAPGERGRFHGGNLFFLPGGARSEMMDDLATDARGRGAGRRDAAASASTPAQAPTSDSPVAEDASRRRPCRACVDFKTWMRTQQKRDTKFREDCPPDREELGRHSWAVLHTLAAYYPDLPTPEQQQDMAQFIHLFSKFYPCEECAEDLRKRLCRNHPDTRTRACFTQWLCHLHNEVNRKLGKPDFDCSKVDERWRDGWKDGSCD
Vif A3G – HIV-1 Vif–A3G interaction blockers – biochemical, TR-FRET, GST-Vif 1-94, biotin-A3G peptide, dose response retest, primary screen (AID 1117319); TR-FRET GST-Vif / biotin-A3G peptide binding; higher % means a stronger effect; test concentration not given here; strong numbers were not always called active; 260,000 tested, 0.57% active; inhibition, %; hits with a dose series show IC50 in µM;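 active = above the screen mean plus three standard deviations and confirmed in dose response; inconclusive = results disagree or hit not tested in dose response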;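 note: Vif residues 1-94 fused to GST binding biotinylated APOBEC3G peptide 110-148; 0% = full assay without inhibitor and 100% = GST in place of GST-Vif; retest series ran down from 100 µM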
Calb FLC – C. albicans growth modulation with fluconazole; growth inhibition, % (test concentration not listed); 300,000 tested, 0.57% active; C. albicans CaCi-2 (fluconazole-resistant clinical isolate) + fluconazole, Alamar Blue growth, 48 h;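 active = most replicates above 75%; inconclusive = exactly half above 75%; inactive = most below 75%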;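 note: all wells also contain fluconazole at 8 µg/ml as a sub-toxic cotreatment; 0% = median of DMSO wells and 100% = median of geldanamycin control wells; wells of about 8 µL received 7.5 nL stock; the first replicate is given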
LANA-H2B inh – blocks KSHV LANA binding to histone H2A/H2B. cell-free LANA-H2A/H2B peptide, fluorescence polarization. Q9QR71. inhibition, % (test concentration not listed). 320,000 tested, 0.6% active; in the data active = inhibition mostly above about 10%, no sharp cut-off; inactive = mostly below about 6.7%;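 note: stock transfer was 7.5 nL into about 10 µL; 0% = median of vehicle wells and 100% = median of positive control wells; one replicate is shown; the record names a cut of 25% in any replicate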
RanGTP-Imp inh – disruptors of Ran-importin-beta complex formation – biochemical, FRET, CFP-Ran, YFP-importin-beta, homogeneous, primary screen; cell-free CFP-Ran/YFP-importin-beta FRET ratio; 300,000 tested, 1.1% active; inhibition, % (no concentration beside the values);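 active = most replicates above 15%; inconclusive = exactly half above 15%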;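 note: 0% = DMSO wells and 100% = Ran loaded with GDP instead of GTP; wells of about 40 µL received 100 nL stock; the first replicate is given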
Beta2AR agonist – human beta-2 adrenergic receptor agonism by FAP; Am2.2-beta2AR cells, FAP receptor internalization, flow cytometry; reference of the scale not given here; response, % (concentration not given with the values); 340,000 tested, 0.43% active;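 active = response above a set limit, near 3 SD of response in nonfluorescent compounds, cut at about 42% in these data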;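 note: stock transfer was 100 nL into about 11 µL; a reference agonist was the positive control; negative values mostly stem from fluorescent compounds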
Target sequence (P07550 whole entry, looked up): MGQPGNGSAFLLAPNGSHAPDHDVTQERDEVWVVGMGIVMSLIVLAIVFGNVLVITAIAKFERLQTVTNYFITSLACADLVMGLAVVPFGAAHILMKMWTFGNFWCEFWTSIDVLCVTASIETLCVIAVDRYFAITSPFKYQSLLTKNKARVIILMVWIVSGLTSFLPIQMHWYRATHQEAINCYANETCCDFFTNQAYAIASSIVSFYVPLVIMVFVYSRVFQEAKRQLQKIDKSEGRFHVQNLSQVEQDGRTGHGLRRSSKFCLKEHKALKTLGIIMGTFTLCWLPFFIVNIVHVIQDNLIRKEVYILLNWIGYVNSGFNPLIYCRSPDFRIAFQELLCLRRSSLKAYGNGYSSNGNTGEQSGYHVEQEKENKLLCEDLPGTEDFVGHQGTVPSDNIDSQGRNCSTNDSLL
* = called active by the depositor; u = inconclusive; x = no result given; & = joins results of further samples.

SMILES	HNF4A DNA FP	ALR inh	Vif A3G	Calb FLC	LANA-H2B inh	RanGTP-Imp inh	Beta2AR agonist
O=C(Nc1ccc2c(c1)OCCO2)c1cccc(Cl)c1	2.9	-2	x	-23	-2.8	3.0	-4
CCN(CC)C(=O)CC(c1cc(OC)c(OC)c(OC)c1)c1c(OC)cc(OC)c2ccc(=O)oc12 (configuration not stated)	-4.9	-6	x	0	5.6	u	1
COc1ccc(N(CC(=O)NCc2ccccc2)S(C)(=O)=O)cc1	-0.8	-4	-5%	-1	0.7	3.9	-1
COc1ccc2cc3c(N)nn(C(=O)c4cccc([N+](=O)[O-])c4)c3nc2c1	162	0	0%	34	-4.6	3.0	4
Cc1c(CNC(=O)c2cnn3c2NC(c2ccc(Br)cc2)CC3C(F)(F)F)cnn1C (configuration not stated)	-1.0	2	-10%&-5%	-2	4.7	-3.1	2
CC(C)C[C@@H](CO)N1CCN(CCc2ccccc2)CCC1=O	7.5	x	x	-10	0.3	1.9	4
Cc1ccnc(NC(=O)C2CCCN(c3ncnc4c3nc3n4CCCCC3)C2)c1 (configuration not stated)	0.3	4	x	16	-2.2	0.2	-4
CCOc1ccc(CNCc2ccc(C(=O)O)cc2)cc1OC	-2.9	-32	26%	-21	6.1	-3.6	-9
O=C(CSc1n[nH]c(-c2cccs2)n1)N1CCN(S(=O)(=O)c2ccc3ccccc3c2)CC1	-1.7	-3	-6%	2	-0.3	1.8	-3
O=C(NCCc1ccccc1)c1ccc(NCC2CCCO2)c([N+](=O)[O-])c1 (configuration not stated)	0.1	-23	x	6	0.4	1.6	-6
CCCN1C(=O)/C(=C\C=C2/C=CN(CC)c3ccccc32)SC1=S	2.1	-1	x	-6	0.0	6.5	15
O=c1cnnc(SCCc2ccccc2)[nH]1	-1.9	2	6%	16	2.1	2.9	2
O=C(N/N=C/c1ccccc1)c1ccc(N2CCCC2=O)cc1	4.7	0	9%	-6	3.6	u	64*
CC(C)CCC(C(=O)O)C(C)CC(=O)Nc1ccn(-c2ccccc2)n1 (configuration not stated)	-2.2	2	-7%	6	1.9	u	-5
CC(Sc1nc(N)cc(=O)[nH]1)C(=O)NNC(=O)c1cccc(Cl)c1 (configuration not stated)	1.4	2	-4%	x	-1.4	x	-8
CC1CCCCC1NC(=O)COC(=O)c1ccc(N(C)C)cc1 (configuration not stated)	0.4	1	u	-2	-3.6	-1.4	-9
CCCn1c(C)cc(C(=O)COc2ccc(S(=O)(=O)N(CC)CC)cc2[N+](=O)[O-])c1C	-2.9	-2	x	-19	2.8	0.8	-1
Cc1ccc(-c2csc(N3CCN(c4cc5c(cc4Cl)nc(C)n5CCN4CCCCC4)CC3)n2)cc1	6.6	-1	x	21	10	6.5	18
O=C(CN1CCc2cc3c(cc2C1)OCCCO3)Nc1cccc([N+](=O)[O-])c1	-0.6	-9	7%	-20	0.1	-0.5	0
Cc1cc(=O)oc2c(C)c(OCC(=O)NC3CCN(Cc4ccccc4)CC3)ccc12	2.3	-13	x	-2	-7.6	-0.9	10
CCOc1cc(N2CCOCC2)c(OCC)cc1NC(=O)CSc1nc(N)cc(=O)[nH]1	-1.5	-16	-6%	x	5.8	x	1
Cc1cc(C(=O)N(C)Cc2ccc(Br)cc2)no1	-0.9	3	5%	2	11	-2.8	-2
COc1cc(CNC2CCCCCCC2)cc(Cl)c1OCC(N)=O	0.7	1	x	-6	0.0	u	-2
C=C[C@@H]1c2ccccc2N(S(=O)(=O)c2ccc(C)cc2)[C@H](c2ccc(C(F)(F)F)cc2)C1(C#N)C#N	4.5	0	x	x	1.2	x	-1
COc1ccccc1CNC(=O)[C@H](C)N1C(=O)N2CCc3c([nH]c4ccccc34)[C@@]2(C)C1=O	-2.1	x	x	-4	-1.8	u	-3
SMILES	HNF4A DNA FP	ALR inh	Vif A3G	Calb FLC	LANA-H2B inh	RanGTP-Imp inh	Beta2AR agonist
c1ccc2oc(NC3=NCN(CC4CCCO4)CN3)nc2c1 (configuration not stated)	0.8	5	-4%	21	4.8	2.1	-2
CC(C)C(=O)Nc1ccc(NC(=O)CCc2ccccc2)cn1	1.1	-38	8%	11	3.6	-3.6	-3
O=c1[nH]c(SCc2ccccc2[N+](=O)[O-])nc2nc[nH]c12	2.0	13	28%	x	-1.4	-2.2	-2
O=C(COC(=O)Cc1c[nH]c2ccccc12)Nc1ccccc1C(F)(F)F	-4.5	-2	x	x	1.1	x	-3
CCc1nnc(SCC(=O)Nc2ccc(F)cc2)o1	2.2	14	-2%	-6	1.1	1.8	-2
O=C(COC(=O)/C=C/c1ccccc1)NC(=O)NC1CCCCC1	-1.3	x	-1%	x	-0.9	x	-4
CCOc1ccc(NC(=O)COc2coc(CN3CCc4ccccc4C3)cc2=O)cc1	-0.9	x	12%	20	-8.3	3.6	1
COc1cccc(NC(=S)N2CCN(Cc3ccccc3)CC2)c1	-0.2	x	x	-17	-3.3	0.6	-1
CC(C)c1ccc(N2C(=O)/C(=C/N(C)C)SC2=S)cc1	119	-15	8%	-1	1.2	0.1	-26
COc1cc2c(cc1OC)-c1cc(Nc3ccc4c(c3)OCCO4)nc(=O)n1CC2	2.1	43	9%	-3	2.7	2.0	14
CCOC(=O)N1CCN(C(=O)CSCC(=O)Nc2nc(-c3ccc(-c4ccccc4)cc3)cs2)CC1	-3.6	4	-9%	6	4.7	-0.5	31
CC(C)(C)CC(=O)Nc1ccc(S(=O)(=O)NC2=NCCCCC2)cc1	18	-3	-1%	x	-18	x	0
CN(C)c1ccc(/C=N\NC(=O)c2cccc3cc[nH]c23)cc1	3.1	x	u	-12	1.8	6.4	2
CCc1ccccc1NC(=O)NC1CCCCCCC1	6.7	-19	x	-24	3.8	x	-7
COC(=O)c1ccc(OCCn2cnc3ccccc3c2=O)cc1	3.8	-20	-5%	-1	6.6	-2.6	-1
Cc1ccc(C2=CC(=O)C[C@H](c3ccc(Cl)cc3)C2)cc1	2.8	0	x	x	-2.6	x	18
Cc1cccc(NC(=S)NCc2ccccc2)c1C	-1.2	0	x	-2	-3.0	6.1	-2
COc1ccc(C(CC(=O)N2CCOCC2)c2c(OC)cc(OC)c3c(-c4ccccc4)cc(=O)oc23)cc1 (configuration not stated)	-13	-4	x	12	1.1	-1.4	-11
CCC(Sc1nc2ccccc2c2nc3ccccc3n12)C(=O)NCc1ccco1 (configuration not stated)	x	-1	-9%	6	-0.7	-0.3	x
CCOc1ccc(NC(=O)CC2C(=O)N(CC)C(=S)N2NC(=O)c2ccncc2)cc1 (configuration not stated)	0.5	x	-1%	3	-3.8	-1.8	3
CCCS(=O)(=O)N1CCN(Cc2ccc([N+](=O)[O-])cc2)CC1	3.0	4	9%	-18	-5.2	-2.4	-2
COc1cccc(CNC(=O)C(C)n2nc(C)n3c(cc4occc43)c2=O)c1 (configuration not stated)	2.4	-1	x	1	-0.5	5.5	-5
N#C/C(=C(/O)CSc1ccccc1C(=O)O)c1nc2ccccc2s1	4.2	17	-1%	u	-3.3	-3.1	-6
O=C(O)C(=Cc1cccc([N+](=O)[O-])c1)c1ccc(Cl)cc1	-2.5	x	-1%	x	x	x	3
O=C(Cn1c(=O)c2c(ncn2C2CCCC2)n(Cc2ccccc2)c1=O)N1CCc2ccccc21	-0.7	5	-4%	14	-3.6	-3.8	-5

Some of these compounds in order of the Beta2AR agonist value, descending:
canonical_smiles	Beta2AR agonist
COc1cc2c(cc1OC)-c1cc(Nc3ccc4c(c3)OCCO4)nc(=O)n1CC2	14
O=C(COC(=O)/C=C/c1ccccc1)NC(=O)NC1CCCCC1	-4
COc1ccc(C(CC(=O)N2CCOCC2)c2c(OC)cc(OC)c3c(-c4ccccc4)cc(=O)oc23)cc1 (configuration not stated)	-11

Continuation:
SMILES	HNF4A DNA FP	ALR inh	Vif A3G	Calb FLC	LANA-H2B inh	RanGTP-Imp inh	Beta2AR agonist
COc1cc(OC)cc(-c2nnc(NC(=O)CCS(=O)(=O)c3ccccc3)o2)c1	1.6	3	1%	3	1.7	7.3	4
CC(=O)c1c(C)nc(-c2ccccc2)n1O	1.0	25	9%	2	2.1	-0.6	2
COc1cc(OC)c(-c2cc(C(=O)O)ccc2OC)c(OC)c1	0.2	0	2%	-1	2.1	1.0	11
Cc1cc(C)n(CC2CC(=O)N(c3cc(Cl)cc(Cl)c3)C2=O)n1 (configuration not stated)	-3.0	9	x	24	-3.3	-2.0	-1
CCN(Cc1cnn(C)c1)C(=O)c1cc(COc2ccc(F)cc2F)on1	4.4	x	x	u	0.5	2.5	0
CCC(=O)N1CC2(CC(c3cccc([N+](=O)[O-])c3)=NO2)C[C@H]1C(=O)NCC(N)=O (some centres not stated)	3.4	-9	-6%	-3	-4.1	-0.5	-2
CCOC(=O)c1c(CN2CCOCC2)n(-c2ccccc2)c2cc(Br)c(O)c(CN(C)C)c12	0.6	24	3%	-10	-3.9	5.3	2
CCn1cc(C(=O)Nc2ccc3c(c2)OCCO3)c2cc(OC)c(OC)cc2c1=O	-0.8	-9	u	-1	-0.4	1.4	8
CCC(C)[C@H](NC(=O)NCc1ccccn1)C(=O)OC (some centres not stated)	1.7	-4	8%	-33	-1.0	4.6	9
Cc1ccc(-c2csc(NC(=O)CSc3nc(C)cs3)n2)cc1	-2.5	u	6%	-20	-1.1	2.1	-8
Cc1ccc(C)c(NC(=O)CSc2nnc(-c3cc(C)[nH]n3)n2N)c1	-2.0	4	x	-9	3.0	5.0	0
N=C1S/C(=C\c2cccc3ccccc23)C(=O)N1c1ccc(F)cc1	1.2	-3	-4%	28	3.4	1.0	1
O=C(NCC1CCCN(C(=O)Cc2ccccc2Cl)C1)c1ccc(F)cc1 (configuration not stated)	3.2	-9	1%	0	-2.1	6.5	-1
COc1cccc(-c2ccc(SCC(=O)N3CCN(c4ccccc4)CC3)nn2)c1	3.2	88*	2%	-7	-1.9	-3.4	-2
CC1CCN(C(=O)c2cc3ccccc3cc2O)CC1	-0.2	9	-4%	14	-6.7	-5.6	-10
Cc1cc(OCC(=O)NCCN2CCOCC2)cc(C)c1Br	-1.4	-1	-11%	-2	0.5	-3.6	3
COc1cccc(-c2nn(-c3ccc(F)cc3)cc2C(=O)NCC2CCCO2)c1 (configuration not stated)	1.6	x	x	18	x	1.7	-13
CCn1nnc(NC(=O)CSc2ccc(Cl)cc2)n1	-7.9	-4	26%	-16	0.0	-5.0	5
O=c1cc(-c2ccncc2)oc2c1ccc1ccccc12	-3.4	-12	-6%	-2	-1.6	2.3	6
COc1ccc(C(=O)CSc2nnnn2Cc2ccccc2)cc1	1.1	5	3%	0	-1.9	0.3	-5
CCCCNC(=O)CC1N=C2c3ccccc3N=C(SCC(=O)Nc3ccccc3C)N2C1=O (configuration not stated)	-0.7	94*	6%	1	1.3	0.9	-3
CCOC(=O)Cn1cc(/C=N/NC(=O)c2cc3ccccc3o2)c2ccccc21	-1.1	-2	9%	-3	1.4	2.3	-2
Cc1cc(=O)oc2cc(OCC(=O)OCC(=O)N3CCc4ccccc43)ccc12	-2.8	-23	17%	0	-0.2	-0.9	11
CCCc1ccc(OCC(O)CN2CCN(CCO)CC2)cc1 (configuration not stated)	2.1	-1	x	8	-3.4	4.3	-5
Cc1csc2c(=O)n(CCO)c(=O)[nH]c12	10	4	11%	-2	-0.4	-2.4	0
CCOc1ccc(NC(=O)CCCN2C(=S)NC(C)(C)CC2C)cc1 (configuration not stated)	-0.3	-12	x	-5	-1.2	0.3	-2
N#Cc1ccc(C23CC4(C2)[C@H](CN(Cc2ccc(C(F)(F)F)cc2)[C@@H]4c2ccccc2)C3c2ccc(C(F)(F)F)cc2)cc1 (some centres not stated)	x	9	x	-11	-1.4	u	x

As entered above.
Under LANA-H2B inh, CCC(=O)N1CC2(CC(c3cccc([N+](=O)[O-])c3)=NO2)C[C@H]1C(=O)NCC(N)=O (some centres not stated) reads -4.1
Under ALR inh, CC1CCN(C(=O)c2cc3ccccc3cc2O)CC1 reads 9
